Choline anaer gr: choline-fed anaerobic bacterial growth inhibition. Gram-negative bacterium anaerobic choline minimal medium, absorbance growth; hits give low values; many inactives read as strong as hits in the columns shown. calls only. 55,000 compounds, 0.2% hits. AID 1963822;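 active = growth z-score on choline under -2 at 7 or 20 h with little or no fall on glycerol, limits in tiers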;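 also: stock transfer was 300 nL into about 50 µL; the organism is E. coli; final concentration not given here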
Choline anaer gr early: also measured in Choline anaer gr; calls as there; z-score; measured here: choline growth z-score, timepoint 1;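 score of optical density at 7 h as mean of two plates; lower means less growth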
An asterisk follows results filed as active; i = inactive; & = joins results of further samples.

Fields – Choline anaer gr	Choline anaer gr early
1. O=C(Cn1cc(S(=O)(=O)Cc2ccccc2F)c2ccccc21)NCC1CCCO1 (configuration not stated)
    i	0.68
2. CO[C@H]1C[C@@H]2CC[C@@H](C)[C@@](O)(O2)C(=O)C(=O)N2CCCC[C@H]2C(=O)O[C@H]([C@H](C)C[C@@H]2CC[C@@H](O)[C@H](OC)C2)CC(=O)[C@H](C)/C=C(\C)[C@@H](O)[C@@H](OC)C(=O)[C@H](C)C[C@H](C)/C=C/C=C/C=C/1C
    i	-1.2&0.56
3. Cc1noc(C)c1CCNC(=O)C1CCCN(c2nc3cccnc3s2)C1 (configuration not stated)
    i	0.49
4. Cc1[nH]c(C)c(S(=O)(=O)N2CCN(c3ncccn3)CC2)c1C(=O)N1CCCC1
    i	0.09
5. COc1ccc(CCN2CCC(CNS(=O)(=O)c3cc(-c4cc(C)no4)cs3)CC2)cc1
    i	-1.1
6. O=c1c2c(nc3nc(CNc4ccc(Cl)cc4)[nH]n13)CCC2
    i	-0.62
7. CCOC(=O)c1cc(OCC(=O)NC2CCCCC2)c2cc(Cl)ccc2n1
    i	0.67
8. CCCNC(=O)C1CCCN(c2nc(C)nc3onc(CC)c23)C1 (configuration not stated)
    i	-0.74
9. CCN(CC)C(=O)c1ccc2c(c1)N(CC(=O)NC(C)(C)C)C(=O)CO2
    i	-0.12
10. CCOC(=O)N1CCC2(CC1)N=C(c1ccccc1O)CC(c1cc(Cl)ccc1O)N2 (configuration not stated)
    i	0.02
11. CCC(CC)c1nc(Cn2ccnc2)no1
    i	-0.42
12. CCc1nc(-c2csc(S(=O)(=O)N3CCCC(C(=O)NC(C)C)C3)c2)no1 (configuration not stated)
    i	0.38
13. O=S(=O)(NCCc1nc(-c2ccccc2)n[nH]1)c1ccccc1F
    i	-1.1
14. Cc1ccc(S(=O)(=O)N2CCC(c3nc4cc(C(=O)N5CCCCC5)ccc4n3C3CCCCC3)CC2)cc1
    i	-0.09
15. O=C(c1cccc(F)c1)N1CCN(c2ccc(Nc3ccccc3)nn2)CC1
    i	-0.05
16. COc1ccc(-c2nc(-c3ccc4c(c3)nc(C)c(=O)n4C)no2)c(OC)c1
    i	-0.44
17. CCOCCCNC(=O)c1cc2c(Cl)ccc3c2n1CC(CC)O3 (configuration not stated)
    i	1.3
18. CC(C)c1ccc(-c2noc(N3CCC(C(=O)N4CCN(C5CCCCC5)CC4)CC3)n2)cc1
    i	-0.04
19. Cc1cc2c(cc1C)NC(c1cc(F)ccc1F)C1=C(CC(C)(C)CC1=O)N2 (configuration not stated)
    i	1.1
20. CCCCc1nn2c(=O)cc(CN(CCC)Cc3ccc(C(C)C)cc3)nc2s1
    i	0.52
21. CCn1c(C2CCCO2)nc2ccccc21 (configuration not stated)
    i	-0.64
22. CCC(Sc1nc2ncccc2o1)C(=O)N(CC)c1ccccc1 (configuration not stated)
    i	-0.29
23. CCOc1ccc(NC(=O)C2CCCN(S(=O)(=O)c3cn(C)cn3)C2)cc1 (configuration not stated)
    i	-0.45
24. CC(C)C(=O)N1c2ccccc2NC2=C(C(=O)CC(C)(C)C2)C1c1ccccc1 (configuration not stated)
    i	-0.31
25. Cc1csc(-c2csc(S(=O)(=O)N(C)Cc3ccccc3)c2)n1
    i	0.05
26. CCc1ccc2[nH]cc(S(=O)(=O)c3ccc(F)cc3)c(=O)c2c1
    i	1.1
27. COCCCn1c(SCc2nc(-c3cccc(Cl)c3)no2)nc2cc3c(cc2c1=O)OCO3
    i	0.41
28. O=S(=O)(NCc1nc2cccnc2n1Cc1ccccc1)c1ccc2c(c1)CCCC2
    i	0.63
29. COc1cccc(-c2nn(Cc3nc(-c4cccc(Cl)c4)oc3C)c(=O)c3noc(C)c23)c1
    i	0.5
30. COc1ccc(-c2oc3ccc(OC)cc3c2C(=O)Nc2ccc(Cl)cc2)cc1
    i	1.7

For reference, 15 of the compounds above.
Fields – Choline anaer gr	Choline anaer gr early
13. O=S(=O)(NCCc1nc(-c2ccccc2)n[nH]1)c1ccccc1F
    i	-1.1
14. Cc1ccc(S(=O)(=O)N2CCC(c3nc4cc(C(=O)N5CCCCC5)ccc4n3C3CCCCC3)CC2)cc1
    i	-0.09
15. O=C(c1cccc(F)c1)N1CCN(c2ccc(Nc3ccccc3)nn2)CC1
    i	-0.05
16. COc1ccc(-c2nc(-c3ccc4c(c3)nc(C)c(=O)n4C)no2)c(OC)c1
    i	-0.44
17. CCOCCCNC(=O)c1cc2c(Cl)ccc3c2n1CC(CC)O3 (configuration not stated)
    i	1.3
18. CC(C)c1ccc(-c2noc(N3CCC(C(=O)N4CCN(C5CCCCC5)CC4)CC3)n2)cc1
    i	-0.04
19. Cc1cc2c(cc1C)NC(c1cc(F)ccc1F)C1=C(CC(C)(C)CC1=O)N2 (configuration not stated)
    i	1.1
20. CCCCc1nn2c(=O)cc(CN(CCC)Cc3ccc(C(C)C)cc3)nc2s1
    i	0.52
21. CCn1c(C2CCCO2)nc2ccccc21 (configuration not stated)
    i	-0.64
22. CCC(Sc1nc2ncccc2o1)C(=O)N(CC)c1ccccc1 (configuration not stated)
    i	-0.29
23. CCOc1ccc(NC(=O)C2CCCN(S(=O)(=O)c3cn(C)cn3)C2)cc1 (configuration not stated)
    i	-0.45
24. CC(C)C(=O)N1c2ccccc2NC2=C(C(=O)CC(C)(C)C2)C1c1ccccc1 (configuration not stated)
    i	-0.31
25. Cc1csc(-c2csc(S(=O)(=O)N(C)Cc3ccccc3)c2)n1
    i	0.05
26. CCc1ccc2[nH]cc(S(=O)(=O)c3ccc(F)cc3)c(=O)c2c1
    i	1.1
27. COCCCn1c(SCc2nc(-c3cccc(Cl)c3)no2)nc2cc3c(cc2c1=O)OCO3
    i	0.41

(continued)
Fields – Choline anaer gr	Choline anaer gr early
31. O=C1NC(=O)C(c2c[nH]c3ccccc23)=C1c1c[nH]c2ccccc12
    i	-0.41
32. COc1ccc(F)cc1-c1cc(N2CCN(S(=O)(=O)c3cc(Cl)ccc3OC)CC2)ncn1
    i	1.8
33. CCOc1ccc(CNC(=O)c2[nH]c3ccc(OC)cc3c2N2CCCC2=O)cc1
    i	0.9
34. CCCS(=O)(=O)c1ncc(Cl)c(C(=O)Nc2sc3c(c2C(=O)NC)CCCC3)n1
    i	0.38
35. CC(=O)Nc1ccc(S(=O)(=O)NCCn2c(-c3ccc(C)cc3)nc3ccccc32)cc1
    i	-0.4
36. CCCCC[C@H](O)/C=C/[C@H]1C2CC(CO2)[C@@H]1C/C=C\CCCC(=O)O (some centres not stated)
    i	-0.1
37. CCn1c(=O)c(=O)n(CC(=O)N2CCOCC2)c2cccnc21
    i	0.58
38. c1ccc(N2CCN(c3ncnc4nc[nH]c34)CC2)nc1
    i	0.03
39. C=CCn1c(C(=O)N2CCN(c3ccccc3)CC2)cc2cc(S(=O)(=O)N(C)C)ccc21
    i	0.59
40. COc1ccccc1N1CCN(c2cc(C(=O)O)c3cc(NS(=O)(=O)c4ccc(F)cc4)ccc3n2)CC1
    i	-0.24
41. Cn1c(=O)c2c(-c3ccccc3Cl)c(NCCc3ccccc3)oc2n(C)c1=O
    i	-0.45
42. O=C(O)c1cc(NS(=O)(=O)c2cc(F)ccc2F)ccc1N1CCN(c2ccc(F)cc2)CC1
    i	0.25
43. O=C(CCCc1c[nH]c2ccccc12)NCCc1c[nH]c2ccccc12
    i	-0.18
44. CC(=O)Nc1cc(-c2nc(-c3ccc4c(c3)Sc3ccccc3C(=O)N4C)no2)ccc1C
    i	0.23
45. CCN1CCN(S(=O)(=O)c2cc(-c3nnc(C4CCCC4)o3)co2)CC1
    i	0.62
46. CCS(=O)(=O)c1nc2ccc(NS(=O)(=O)c3cnc[nH]3)cc2s1
    i	-0.03
47. O=C(O)c1cc(N2CCN(c3ccccc3)CC2)nc2ccc(NS(=O)(=O)c3ccccc3)cc12
    i	-1.5
48. CC1Oc2ccccc2N(CC(=O)NC2CC2)C1=O (configuration not stated)
    i	0.92
49. O=C(Cc1ccccc1)N1CCN(c2nc3cccnc3o2)CC1
    i	-0.62
50. c1cc2c(cc1-c1nnc(C3CCCC3)o1)OCO2
    i	-2.1
51. Cn1cc(CN2CCC(C(=O)N3CCC4(CC3)OCCO4)CC2)c2cc(Cl)ccc21
    i	-0.65
52. O=C(c1ccc(F)cc1)N1CCc2cc(CNS(=O)(=O)c3cccc4nsnc34)ccc21
    i	0.16
53. NC(=O)c1scc(-c2ccc(F)cc2)c1-n1cccc1
    i	0.63
54. O=C(CCc1nc(-c2cccnc2)no1)Nc1ccccc1F
    i	-1.6
55. COc1ccc2c(c1)C=C(C(=O)NCc1cccnc1)CO2
    i	-2
56. Cc1nc(Nc2ccc(NS(=O)(=O)c3cccc(F)c3)cc2)cc(N(C)C)n1
    i	0.33
57. CCC(=O)N1CCC2(CC1)Nc1cc(F)ccc1-n1cccc12
    i	-1
58. Cc1ccc(CCN2C(=O)c3ccccc3CCC2(C)C(=O)NCCC(C)C)cc1 (configuration not stated)
    i	-1.1
59. O=C(c1cc2cccnc2n(Cc2ccc(F)cc2)c1=O)N1CCOCC1
    i	-0.22
60. Cn1nc(C(=O)NCc2ccc(Cl)cc2)c2c1CCN(S(=O)(=O)c1ccc(F)cc1)C2
    i	0.01
61. Cc1oc2ncnc(N3CCCCC3)c2c1C(=O)N1CCC(C(N)=O)(N2CCCCC2)CC1
    i	1.1
62. Cn1ccc2cc(S(=O)(=O)N3CCN(C(=O)Nc4cccc(Cl)c4)CC3)ccc21
    i	-0.17
63. CCC(=O)N1CCCC1c1nc2ccccc2n1CCCCOc1ccc(OC)cc1 (configuration not stated)
    i	-1.1
64. COc1ccc(C(Nc2nc(C)cc(C)n2)c2cc(C)sc2NC(=O)c2ccccc2)c(OC)c1 (configuration not stated)
    i	-0.96
65. Fc1cccc(-c2noc(Cc3nc(-c4ccc(Cl)cc4)cs3)n2)c1
    i	1.4
66. CCc1sc(NC(=O)C2c3ccccc3Oc3ccccc32)nc1-c1ccccc1
    i	0.64
67. COc1ccc(C2CC(=O)c3cnc4c(-c5ccc(F)cc5)c(C)nn4c3C2)cc1OC (configuration not stated)
    i	0.71
68. CC(=O)Nc1ccc(NC(=O)C2CC(=O)NC(N3CCN(c4ccccc4F)CC3)=N2)cc1 (configuration not stated)
    i	0.42
69. Cc1ccc(C2=Nc3cccnc3N(CC(=O)Nc3ccc4c(c3)OCCO4)C(=O)C2)cc1C
    i	0.19
70. Clc1ccc(CNCc2ccc3nccnc3c2)cc1
    i	-5.3
71. COc1ccccc1C(=O)N(CCN(C)C)c1nc2ccc(Cl)cc2s1
    i	0.11
72. CC1CCN(CCCNC(=O)c2cc3c(s2)CN(C2CC2)C3)CC1
    i	1
73. CCc1ccccc1NC(=O)Cn1cc(S(=O)(=O)NC)c(S(=O)(=O)NC)c1
    i	0.02
74. COc1cc(Cl)c(NS(=O)(=O)c2c(C)sc(C)c2-c2n[nH]c(C)c2C)c(OC)c1
    i	0.12
75. Cc1ccc2occ(CC(=O)N3CCC(Cc4ccccc4)CC3)c2c1
    i	-0.83
76. Cc1sc(-n2cccc2CNCc2ccc(OC(C)C)cc2)c(C(=O)O)c1C
    i	0.2
77. CC(C)(Oc1ccc(C2CC2(Cl)Cl)cc1)C(=O)O (configuration not stated)
    i	0.58&0.53
78. CCCCCC(=O)CC[C@H]1[C@H](O)CC(=O)[C@@H]1C/C=C\CCCC(=O)O
    i	1.1
79. O=C1Nc2cc(S(=O)(=O)N3CCc4ccccc43)ccc2SCC1CC(=O)N1CCCC1 (configuration not stated)
    i	-0.47
80. Cn1c(=O)c(-c2noc(C(=O)NCCN3CCCC3)n2)nn(-c2ccc(F)cc2)c1=O
    i	-0.07
81. O=C(c1ccc(F)cc1)N1CCc2cc(CNS(=O)(=O)Cc3ccccc3)ccc21
    i	-0.08
82. CCN(CC)c1cc(C)c2cc(NC(=O)c3ccc4c(c3)c(C)c(C)n4C)ccc2n1
    i	-0.01
83. C#CCOc1ccc(C2CC(=O)Nc3c2c(C)nn3-c2nc3ccc(OCC)cc3s2)cc1 (configuration not stated)
    i	1.3
84. c1ccc2[nH]c(-c3cscn3)nc2c1
    i	0.28
85. Nc1cc(OC(=O)c2ccc(Cl)cc2)nn1S(=O)(=O)c1ccc(F)cc1
    i	0.4
86. Cc1cccc(-c2noc(-c3nn(-c4ccccc4)ccc3=O)n2)c1
    i	0.82
87. O=C(Nc1cc(F)cc(F)c1)c1cccc(-c2cc(NC3CCCCC3)ncn2)c1
    i	-1.1
88. CN1CCc2c(sc(NC(=O)CN3C(=O)c4ccccc4C3=O)c2-c2nc3ccccc3s2)C1
    i	-0.48
89. CCOC(=O)c1ccc2c(c1)nc(C1CCN(S(=O)(=O)c3ccc(C)cc3)CC1)n2C1CCCCC1
    i	-0.61
90. CC(C)CN[C@H]1CS(=O)(=O)C[C@@H]1S(=O)(=O)c1cccs1
    i	-1.2

(list continues)
Fields – Choline anaer gr	Choline anaer gr early
91. Cc1n[nH]c(C)c1S(=O)(=O)N1CCCC(c2nnc(C(=O)Nc3ccccc3)s2)C1 (configuration not stated)
    i	0.67
92. CCc1nnc(-c2cc(S(=O)(=O)NCC3CCCO3)c[nH]2)o1 (configuration not stated)
    i	0.4
93. COC(=O)[C@H]1[C@H]2C[C@@H]3c4[nH]c5cc(OC)ccc5c4CCN3C[C@H]2C[C@@H](OC(=O)c2cc(OC)c(OC)c(OC)c2)[C@@H]1OC
    i	0.64&0.17&-0.12
94. CCCc1nn(C)c2c(=O)[nH]c(-c3cc(S(=O)(=O)N4CCN(C)CC4)ccc3OCC)nc12
    i	0.38&0.16&0.88
95. Cc1ccc(C(=O)O)cc1NC(=O)C1Nc2ccccc2S(=O)(=O)N1 (configuration not stated)
    i	1.2
96. O=C(CCc1nc(N2CCCCC2)c2c(-c3ccc(F)cc3)noc2n1)NCc1ccccc1
    i	-0.12
97. CCc1nc(-c2ccc(C(=O)NCC(=O)NC3CCCCC3)cc2)no1
    i	0.1
98. CCOc1cc(C2CC(=O)Nc3c2c(C)nn3-c2ccc3nncn3n2)ccc1OCc1ccccc1 (configuration not stated)
    i	0.18
99. COc1ccc(-c2cncc(C(=O)NCc3ccc4c(c3)OCO4)c2)cc1
    i	0.28

Bioassay records (PubChem)

This is a subset, so the mix of outcomes need not match the whole.
